Sa RN4220 lethal: S. aureus RN4220 growth inhibition. OD600, 16 h. 0.33% of 330,000 active. inhibition, % (concentration not given with the values);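 active means z-score of -3 or lower and OD600 up to 0.18 on both plates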;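 further: plate controls were untreated cells for no effect and reference antibiotic for full effect; stock transfer was 100 nL into about 80 µL; one replicate is shown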
BJeLR viability: BJeLR cell viability loss; BJeLR (HRASV12) viability, CellTiter-Glo ATP luminescence, 48 h; reference of the scale not given here; inhibition, % (concentration not given with the values); 0.17% of 300,000 active;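 active means replicate mean above 50%; inconclusive means above 50% but judged a plate artefact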;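 further: 50 nL library stock added to about 25 µL; numbers are from one replicate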
ugtP null kill: compounds lethal to S. aureus RN4220 ugtP deletion mutant. OD600 growth, 16 h; some inactives read as strong as hits. growth inhibition, % (concentration not given with the values). 0.54% of 330,000 active. AID 1259309;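 active means z-score under -3 and OD600 up to 0.15 on both plates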;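 further: plate controls were untreated wells for no effect and antibiotic for full effect; wells of about 80 µL received 100 nL stock; the first replicate is given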
Mtb hypoxia inh: inhibitors of hypoxia-regulated fluorescent reporter in Mycobacterium tuberculosis; M. tuberculosis hypoxia-regulated fluorescent reporter, fluorescence; fluorescence inhibition, % (concentration not given with the values); 0.1% of 300,000 active; AID 1159583;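 active means 35 to 45% if threefold the growth effect, above 45% if 1.5-fold the growth effect; inactive means the rest, general growth blockers included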;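 further: wells of about 50 µL received 100 nL stock; 0% = vehicle wells and 100% = reference inhibitor wells; whole bacteria with a GFP reporter of the hypoxia response; strong numbers were not always called active; many hits fall short of the cut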
PrP UTR inh: suppresses PrP 5' UTR mRNA reporter expression; AID 488862; cell-based PrP 5' UTR mRNA reporter, plate reader; inhibition, % (concentration not given with the values); 0.35% of 340,000 active;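 active means every replicate at 50% or more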;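 further: 0 = median of the neutral control wells; tested in H4 reporter cells; numbers are from one replicate; inactives centre near -14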
Bead autofluor: counter-screen for toxin protease inhibitors: compound fluorescence; compound autofluorescence counterscreen, microsphere flow cytometry; active compounds read high; fluorescence intensity (no concentration beside the values); 3.1% of 360,000 active; AID 624483;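 active means at least 3 SD above the mean of all compounds, about 16000 in these data; inconclusive means too few beads counted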;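 further: 100 nL of 1 mM stock went into each well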
Mtb hypoxia inh growth: second read-out of Mtb hypoxia inh, no call of its own (marks repeat the call); growth inhibition, %; measured here: M. tuberculosis growth (absorbance);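 0% = vehicle and 100% = reference antibiotic; read after six days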
Numbers without * were called inactive; ? = inconclusive; . = no result given.

SMILES	Sa RN4220 lethal	BJeLR viability	ugtP null kill	Mtb hypoxia inh	Mtb hypoxia inh growth	PrP UTR inh	Bead autofluor
COc1ccc(C(C)C)cc1S(=O)(=O)NCC1CCCO1 (configuration not stated)	-2.0	0	1	-4	-2	-27	3134
Cc1ccc(S(=O)(=O)Nc2ccc(F)c(S(=O)(=O)N3CCOCC3)c2)cc1	5.4	.	-4	15	3	-16	3879
Cc1ccc(NC(=S)N2CCc3[nH]c4ccccc4c3C2)cc1	0.1	-4	-11	-15	-8	-19	3900
CCCCNC(=O)c1cn(CC(C)C)c(=O)c2c1c1ccccc1n2C	3.1	-8	3	16	8	-7	3491
CC(=O)c1ccc2c(c1)c(C#N)c1ccccc1[n+]2[O-]	35	17	33	42*	17*	.	3070
O=C1N/C(=C\c2ccc(N3CCOCC3)c(F)c2)C(=O)N1Cc1ccccc1	0.1	1	-10	-8	-1	10	8258
Cc1ccc(NC(=O)CSCc2ccc(F)cc2)cc1	4.1	9	1	7	1	-37	2114
COc1ccccc1N1CCN(C(=O)c2ccc(-c3nc4ccccc4s3)o2)CC1	8.7	.	-18	-4	9	-30	8948
COc1nc(-c2ccccc2)ccc1-c1noc(-c2ccco2)n1	19	-1	10	7	15	-68	10307
COC(=O)[C@@H]1C[C@H]2CC[C@H](O)C[C@H]2N1Cc1ccccc1OC(=O)c1cccs1	.	4	.	.	.	-17	6131
Cc1ccc2occ(/C=N/NC(=O)c3ccccc3Br)c(=O)c2c1	.	1	.	.	.	5	4398
CON=CC(c1ccc(Cl)nc1)S(=O)(=O)c1ccccc1 (configuration not stated)	3.0	.	2	14	-4	.	.
CNS(=O)(=O)c1cc(C(=O)O)ccc1OC	1.1	1	2	13	3	-22	3334
COc1ccccc1C(=O)Nc1ccc(-c2nnn(CC(=O)N3CCOCC3)n2)cc1	-0.7	-1	6	-2	12	-11	1926
COc1ccc(COC(=O)NC2CCN(S(=O)(=O)c3ccc(OC)cc3)CC2)cc1	-0.4	-4	-2	15	5	-14	4415
Cc1cccc(C)c1NC(=O)C(c1ccccc1)N1CCC1=O (configuration not stated)	-1.6	-7	8	5	8	-14	7120
Cc1ccc(NC(=O)C2CC(Cl)=CCC2C(=O)O)c([N+](=O)[O-])c1 (configuration not stated)	11	6	2	4	10	-30	4441
CN(C)N1C(N)=C(C#N)C(c2ccccc2F)C2=C1CC(C)(C)CC2=O (configuration not stated)	4.8	-2	14	-8	0	3	3804
CCOC(=O)c1c(NC(=O)CN2CCCCC2)sc(CN(C)C)c1-c1ccccc1	-4.1	-6	-5	-1	20	-4	3268
COC(=O)c1ccc2c(=O)n(CC3CCCO3)c(SCC(=O)Nc3ccccc3Cl)nc2c1 (configuration not stated)	8.1	-20	-10	-4	-2	-22	9173
CC1CCc2sc(C(=O)NNC(=S)NC3CC3)cc2C1 (configuration not stated)	4.0	5	3	7	3	-13	5656
COCCNC(=O)C(c1ccccc1F)N(C(=O)C(=O)NC1CCCC1)C1CCCCC1 (configuration not stated)	2.2	2	3	-4	-1	-23	4377
COCCCNC(=O)CCCn1c(=O)[nH]c2ccccc2c1=O	-0.3	6	1	5	5	-30	4262
Cc1ccc(NC(=O)Nc2nc(-c3ccc(C)s3)cs2)cc1	-4.6	6	2	.	.	-19	4130
CCOc1ccc(C(=O)CCC(=O)Nc2ncccc2O)cc1	6.3	2	14	6	0	-36	?
Other results
SMILES	Sa RN4220 lethal	BJeLR viability	ugtP null kill	Mtb hypoxia inh	Mtb hypoxia inh growth	PrP UTR inh	Bead autofluor
O=C(CN1CCN(c2nc(-c3ccccc3)cs2)CC1)NCc1ccc2c(c1)OCO2	-0.2	-12	21	-8	-10	-3	15680
O=C(/C=C/c1ccc([N+](=O)[O-])cc1)N(c1ccccn1)C1CCCCC1	0.6	5	16	-5	2	-59	4114
C[C@H](C(=O)CC(=O)OC(C)(C)C)[C@H](O)c1ccccc1	-8.2	3	-6	6	8	-14	4267
COc1cc2c(cc1OC)C(c1ccc(O)cc1)NCC2 (configuration not stated)	1.7	-23	5	-5	11	-2	4057
Cc1cccc(N(CC(=O)NC(C)(C)C)C(=O)CNC(=O)c2cccs2)c1	3.3	-6	0	-7	-7	-13	5059
CCc1ccc(CNCCSc2nnnn2C)cc1	4.6	4	9	11	13	-5	23525*
CCOC(=O)N(CC)c1ccc(C(O)(C(=O)OC)C(F)(F)F)cc1 (configuration not stated)	6.3	2	12	8	14	-7	?
O=C(NCCc1cccs1)C1CC(c2ccccc2F)=NO1 (configuration not stated)	5.9	4	-3	9	6	-27	4498
O=[N+]([O-])c1ccccc1/C=C/C=NNc1nc(N2CCCCC2)nc(N2CCCCC2)n1	3.8	.	4	-5	2	.	.
CC(=O)Nc1ccccc1OCc1cnc(Cl)s1	8.2	-4	3	4	6	-25	4309
CCOc1ccc(C(=O)NC(C)CCc2ccccc2)cc1 (configuration not stated)	1.0	-12	5	11	5	-10	4025
Cc1cc(N)c2cc(NC(=O)/C=C/c3ccccc3Cl)ccc2n1	0.4	107*	6	.	.	-18	6161
CCOC(=O)C1CCCN(C(=O)c2cccc(S(=O)(=O)N3CCCC3)c2)C1 (configuration not stated)	1.4	.	5	7	4	-25	.
COc1ccc(N2CCN(S(=O)(=O)c3cccc(C(F)(F)F)c3)CC2)cc1	3.7	-1	-5	1	4	-44	20076*
COc1cccc2cc(C(N)=O)oc12	2.6	1	7	15	5	31	4790
C=CCNS(=O)(=O)NC(=O)C1=C(N2CCCC2)COC1=O	6.6	.	3	7	3	-12	4184
CSCCC(NC(=O)c1ccc(Cl)cc1Cl)C(=O)N1CC(C)OC(C)C1 (configuration not stated)	0.2	.	4	7	-10	.	.
Oc1ccc2oc3c(c2c1C=Nn1cnnc1)CCCC3	1.6	.	-2	19	-1	.	.
CCOc1ccc(C2CC(=O)NC3=C2C(=O)CCC3)cc1Cl (configuration not stated)	0.6	2	2	.	.	-7	5008
Cc1ccc(S(=O)(=O)NCC2CCC(C(=O)NCCCN3CCCC3=O)CC2)cc1 (configuration not stated)	4.3	2	8	10	-2	-19	5394
CN(Cc1cccc(Cl)c1Cl)C(=O)CCNC(=O)c1ccco1	-1.0	.	-1	2	19	-62	3826
O=[N+]([O-])c1cc(Cl)ccc1N1CCOCC1	3.4	-13	9	19	7	-11	3253
COc1cc(OC)cc(-c2nc(=S)n3ccsc3n2)c1	-1.8	12	-8	-7	7	0	3310
Cc1ccc2oc(=O)c3cc(C(=O)NCCCN4CCc5ccccc5C4)sc3c2c1	-2.2	-6	-1	.	.	-3	6619
COc1cccc(NC(=O)CCC(=O)Nc2cc(OC)c(NC(=O)c3cccs3)cc2OC)c1	6.3	-15	4	13	6	-24	5615
Remaining list, next part:
SMILES	Sa RN4220 lethal	BJeLR viability	ugtP null kill	Mtb hypoxia inh	Mtb hypoxia inh growth	PrP UTR inh	Bead autofluor
CCOCCCNC(=O)c1cc(-c2ccc(Br)s2)nc2ccccc12	1.5	-6	-9	8	6	3	3279
O=[N+]([O-])c1ccc(-n2ccnc2)cc1	4.0	7	6	2	-11	-15	3076
O=C(NNC(=S)Nc1ccc(F)cc1)c1cccc([N+](=O)[O-])c1	0.5	-1	-9	1	7	-27	4180
COc1ccc(N2C(=O)C3C(C2=O)C2C=CC3C23CC3)c([N+](=O)[O-])c1 (configuration not stated)	3.1	2	2	5	2	-18	2732
COc1ccc(OC(C)C(=O)NC2CCCCCC2)cc1 (configuration not stated)	-1.9	-7	4	-3	2	-2	5912
S=c1[nH]nc(-c2ccc(Br)cc2)n1-c1ccc(Br)cc1	2.0	-22	18	1	-5	5	2966
COc1ccc2c(c1)c(=O)oc1cc(OCC(=O)NCC3CCC(C(=O)O)CC3)ccc12 (configuration not stated)	6.7	-1	-10	.	.	10	4233
O=C(COC(=O)c1ccc(CO)cc1)Nc1ccc(OC(F)F)cc1	6.9	-1	4	2	-2	-58	4471
CCOC(=O)c1[nH]c(C)c(C(=O)C(C)C)c1C	8.9	-9	14	6	6	-19	16910*
CCOC(=O)c1sc(=S)n(-c2cc(F)ccc2F)c1N	0.4	-1	-12	2	5	7	24008*
O=C(Nc1cccc(C(F)(F)F)c1)c1ccc2nc(-c3ccco3)c(-c3ccco3)nc2c1	14	-5	-13	-2	4	-7	3371
CCc1nonc1NC(=O)c1oc2ccc(Br)cc2c1C	2.8	7	1	0	2	-21	5331
COCCNC(=S)N/N=C(\C)c1cc2ccccc2o1	.	-7	.	.	.	-34	2740
C[C@H](NS(=O)(=O)c1ccccc1)C(=O)OCC(=O)NC(=O)Nc1ccc2c(c1)OCCO2	4.9	-4	5	6	2	-45	9692
Cc1cc(C(=O)NCc2ccccc2)c(=O)[nH]c1C	0.0	1	-2	9	13	-43	23927*
COC(=O)C1=C(C)N(CCC2=CCCCC2)C(=O)C1	2.0	8	5	.	.	-10	3486
CC1CCN(c2c(NCC3CCC(C(=O)N4CCc5ccccc5C4)CC3)c(=O)c2=O)CC1 (configuration not stated)	-1.0	-17	6	-5	4	-25	6190
CCOC(=O)c1sc(NC(=O)CSc2nc(C)cc(-c3ccccc3)n2)c(C#N)c1C	3.7	-19	2	7	6	-29	19559*
O=C(CN1C(=O)NC2(CCCC2)C1=O)Nc1cccc(C(F)(F)F)c1	1.7	-12	7	1	10	-8	5831
CCC(CC)C(=O)NCCc1cc2cc(C)c(C)cc2[nH]c1=O	3.0	2	-3	6	3	-11	6088
CN(CC(=O)Nc1ccccc1Cl)C(=O)c1ccc(-c2cccc(C(F)(F)F)c2)o1	.	8	.	.	.	-25	?
O=C(Cn1c(SCC(=O)NC2CCCC2)nnc1-c1ccncc1)Nc1ccc2c(c1)OCO2	0.2	-1	1	0	-1	-3	4814
CC(NC(=O)COC(=O)c1ccccc1SCC(=O)N1CCCC1)c1ccccc1 (configuration not stated)	-2.5	-5	7	3	10	-2	.
CCc1n[nH]c(=S)n1/N=C/c1cc(Br)c(OC)cc1OC	.	-6	.	.	.	-10	1954
CCOc1ccc(S(=O)(=O)NCCSCc2ccco2)cc1	0.9	-12	4	7	-2	-13	9929

Overlap with the part before: 6 compounds, then new ones.
SMILES	Sa RN4220 lethal	BJeLR viability	ugtP null kill	Mtb hypoxia inh	Mtb hypoxia inh growth	PrP UTR inh	Bead autofluor
CCC(CC)C(=O)NCCc1cc2cc(C)c(C)cc2[nH]c1=O	3.0	2	-3	6	3	-11	6088
CN(CC(=O)Nc1ccccc1Cl)C(=O)c1ccc(-c2cccc(C(F)(F)F)c2)o1	.	8	.	.	.	-25	?
O=C(Cn1c(SCC(=O)NC2CCCC2)nnc1-c1ccncc1)Nc1ccc2c(c1)OCO2	0.2	-1	1	0	-1	-3	4814
CC(NC(=O)COC(=O)c1ccccc1SCC(=O)N1CCCC1)c1ccccc1 (configuration not stated)	-2.5	-5	7	3	10	-2	.
CCc1n[nH]c(=S)n1/N=C/c1cc(Br)c(OC)cc1OC	.	-6	.	.	.	-10	1954
CCOc1ccc(S(=O)(=O)NCCSCc2ccco2)cc1	0.9	-12	4	7	-2	-13	9929
CC(=NNC(=O)c1cccc(F)c1)c1cccc(NC(=O)c2ccc(F)cc2)c1	2.5	.	1	-12	-1	.	.
CCn1c(/C=C2\C(=O)N(C(C)C)c3ccccc32)nc2ccccc2c1=O	10.0	9	0	14	2	-6	4656
CNc1nc2ccccc2n1N	2.9	-6	8	1	4	-19	2223
ON=C(c1ccc(Cl)cc1)c1ncc(C(F)(F)F)cc1Cl	-0.1	.	-7	11	12	.	.
O=C1CCC(/C=C/c2ccccc2)=NN1Cc1ccccc1Cl	-9.6	0	23	.	.	5	2132
COc1cc(/C=N/NC(=O)c2csc3c2CCCC3)cc(OC)c1O	.	4	.	.	.	-17	2265
CCNC(=S)NNC(=O)c1c(Cl)c(C)nn1C	5.5	0	-1	4	0	-34	2218
Cn1c(SCC(=O)NN=Cc2cc([N+](=O)[O-])ccc2O)nnc1-c1ccccc1	80	.	72	3	10	.	.
CCc1ccc(C(=O)NCc2ccc(Cl)cc2)cc1	7.4	11	6	.	.	-10	2713
Cc1ccc(N(CC(=O)N2CCOCC2)S(C)(=O)=O)cc1C	4.5	6	1	9	13	-31	20113*
O=[N+]([O-])c1ccc2c(c1)Cc1cc(F)ccc1-2	11	.	16	7	6	-24	3440
CC(C)=CCN1CCN(Cc2cccn2-c2ccccn2)CC1CCO (configuration not stated)	-0.9	12	4	13	4	-2	3503
COc1ccc(CNC(=O)CSc2nccn(-c3ccc(F)c(F)c3)c2=O)cc1	1.7	-13	11	8	5	-5	6094
